Bst PK mod – Pyruvate Kinase | 51,000 tested, 1.2% active | AID 361, 2006 | partly purified Bacillus stearothermophilus pyruvate kinase, luminescence ATP production; ribose 5-phosphate activator present at AC10 | Potency, µM; in the data active means potency below about 11 µM; inconclusive means mostly about 12 µM to 25 µM; inactive means weaker than that;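 the screen sought inhibitors and activators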;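 also: potency is read from the fitted curve at half-maximal effect; scaled between full activation by ribose 5 phosphate and full inhibition by luteolin; about four in five hits inhibit and the cells do not say which; series up to 57 µM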
TsaE inh – qHTS Assay for Inhibitors of YjeE. tRNA threonylcarbamoyladenosine biosynthesis protein TsaE (Escherichia coli (strain …. purified YjeE, fluorescence polarisation of a bound ADP probe. Potency, µM. 71,000 tested, 0.05% active. AID 605, 2007; active = well fitted falling curve; inconclusive = weaker or top-dose-only fall, or a rising curve; inactive = flat or poorly fitted curve;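 also: top concentration of the series not given in the record; excess ADP was the control for the full effect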
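Fluorescence polarization of a BODIPY Texas Red–ADP probe (2 uM) bound to purified YjeE (10 uM) was read after 15 min room-temperature incubation with compounds. Loss of polarization marks inhibitors; ADP serves as titrated control.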
Numbers without * were called inactive; i = inactive; ? = inconclusive; nt = no result given. Not all compounds are listed, so the mix of outcomes need not match the whole.

SMILES	Bst PK mod	TsaE inh
Cn1c(=O)c2c(nc(CN3CCCCC3)n2CCc2ccccc2)n(C)c1=O	>57	i
COc1ccc(-n2nnnc2SCC(=O)c2ccc3c(c2)OCCO3)c(OC)c1	>57	i
CC(=O)NC(Cc1ccc(F)cc1)C(=O)NC1CCN(c2nnnn2-c2ccccc2)CC1 (centres undefined)	>57	i
CCOc1ccc(C2C(C(=O)O)c3ccccc3C(=O)N2CCN2CCOCC2)cc1 (centres undefined)	>57	i
O=C(O)c1cc(-c2ccc(Cl)cc2)n[nH]1	nt	i
CCN(CC)c1ccc(NC(=O)c2cncc(Br)c2)cc1	>57	i
Cc1ccc(S(=O)(=O)N2CCN(C(=O)CSc3nc4ccccc4c(=O)[nH]3)CC2)cc1	>57	i
COc1ccc(CNC(=O)c2ccc(CN3CCOCC3)cc2)cc1	nt	i
CCOC(=O)c1sc(-c2ccc(OC)cc2)cc1N	i	i
CC(=O)N1CCc2cc(S(=O)(=O)NCCC(=O)NC3CCN(Cc4ccccc4)CC3)ccc21	>57	i

Reformatted field by field: 3 of the compounds above.
molecule: CCN(CC)c1ccc(NC(=O)c2cncc(Br)c2)cc1
  Bst PK mod: >57; TsaE inh: i
molecule: Cc1ccc(S(=O)(=O)N2CCN(C(=O)CSc3nc4ccccc4c(=O)[nH]3)CC2)cc1
  Bst PK mod: >57; TsaE inh: i
molecule: COc1ccc(CNC(=O)c2ccc(CN3CCOCC3)cc2)cc1
  Bst PK mod: nt; TsaE inh: i

The results go on.
SMILES	Bst PK mod	TsaE inh
O=S(=O)(c1ccc(-c2ccccc2)cc1)N1CCOCC1	>57	i
CC1(C)C2CC=C(/C=N/n3cnnc3)C1C2 (centres undefined)	>57	i
CN(C)CCN1C(=O)C(=O)/C(=C(/O)c2ccccc2)C1c1ccccc1F (centres undefined)	nt	i
CCC/C=C(\CCC)C(NC(=O)Oc1ccc(F)cc1)c1ccc(C(=O)OC)cc1 (centres undefined)	nt	i
O=c1c2ccccc2nc(SCc2nnc(-c3ccccc3Br)o2)n1-c1ccccc1	>57	i
O=C(CN(C1CCCCC1)S(=O)(=O)c1ccccc1)NCc1cccnc1	>57	i
CCOC(=O)C1CCCN(Cc2ccccc2C)C1 (centres undefined)	>57	i
Cc1cnc(C(=O)OCC(=O)NC2CCCCC2)cn1	>57	i
COCCCNC(=O)C1CC(=O)N(Cc2ccc(OC)cc2)C1 (centres undefined)	>57	i
N#CCCn1c(=O)c(-c2ccccc2)nc2cnc(Nc3ccccc3)nc21	nt	i
CCOC(=O)N1CCC(NS(=O)(=O)c2ccc3c(c2)CCN3C(C)=O)CC1	>57	i
CCN(C(=O)C1CCCCC1)c1nnc(-c2cccnc2)s1	>57	i
Cn1c(=O)c(-c2ccc(F)cc2)nc2cnc(Oc3ccccc3)nc21	nt	i
Cn1c(C(=O)N2CCCc3ccccc32)cc2sccc21	nt	i
CC(=O)NC(C)C(=O)OCC(=O)c1ccc(Cl)s1 (centres undefined)	>57	i
CCn1c(SCC(=O)Nc2nnc(C)s2)nnc1-c1ccco1	>57	i
Nc1nc2ccc(Oc3ccccc3)cc2s1	i	i
NCc1ccccc1CC(=O)N[C@@H]1C(=O)N2C(C(=O)O)=C(CSc3nnnn3CC(=O)O)CS[C@@H]12	nt	i
C=CCOC(=O)C1C(=O)CC(C)(O)C(C(=O)OCC=C)C1c1ccc(OCC)cc1 (centres undefined)	>57	i
c1ccc(-c2nc(C3CCCCC3)no2)cc1	>11.4	i
CC[N+](CC)(CCNC(=O)C(=O)NCC[N+](CC)(CC)Cc1ccccc1Cl)Cc1ccccc1Cl	nt	i
Cc1oc2c(c1C(=O)NCc1cc(C(=O)O)co1)CCCC2	>57	i
O=C(c1ccc(NS(=O)(=O)c2ccccc2)cc1)N1CCCC1	>57	i
COCCCNC(=O)c1ccc(N(C)S(=O)(=O)c2ccc(OC)cc2)cc1	>57	i
Cc1cc2c(c(N)n1)c(=O)oc1ccccc12	i	i
O=C(Nc1nc(NC(=O)c2ccco2)n(-c2ccccc2)n1)c1ccccc1	>25.6	nt
O=C(Cc1c(C(=O)O)[nH]c2ccccc12)Nc1ccc2c(c1)OCO2	>57	i
C=CCSc1nnc(NC(=O)c2ccc(S(=O)(=O)NCC3CCCO3)cc2)s1 (centres undefined)	>57	i
COc1ccccc1-c1nccc(NCc2cccc(C)c2)n1	nt	i
O=C1C2C3C=CC(CO)(O3)C2C(=O)N1c1ccc(-c2ccccc2)cc1 (centres undefined)	nt	i
COC(=O)c1cc(C(=O)OC)cc(N2C(=O)CN=C2Nc2nc(C)cc(C)n2)c1	>57	i
CCOC(=O)c1cnc(Nc2nc3ccccc3o2)nc1CSc1ncccn1	>57	i
O=C1CCCC/C1=C\Nc1ccc(O)cc1	>11.4	i
CC(C)NC(=O)C1CC(=O)N(c2ccc(F)c(Cl)c2)C1 (centres undefined)	>57	i
COc1ccc(N/C=C2\CCOC2=O)cc1	nt	i
Cn1cnnc1SCC(=O)NCc1cccc(C(F)(F)F)c1	>57	i
CSc1nc2c(c(=O)[nH]1)C(c1ccncc1)C(C(=O)OC(C)C)=C(C)N2 (centres undefined)	>57	i
CC(=O)c1cccc(NC(=O)CCOc2ccccc2)c1	nt	i
O=C(NCc1ccc2c(c1)OCO2)C1CCC(CNS(=O)(=O)c2ccccc2)CC1 (centres undefined)	>57	i
CC(NC(=O)c1ccc(F)cc1)C(c1cccs1)N1CCN(C)CC1 (centres undefined)	>57	i

Quoted at random: 2 compounds from above
SMILES	Bst PK mod	TsaE inh
CCOC(=O)c1cnc(Nc2nc3ccccc3o2)nc1CSc1ncccn1	>57	i
Cn1cnnc1SCC(=O)NCc1cccc(C(F)(F)F)c1	>57	i

Compound profiles (already shown). Order of values: Bst PK mod, TsaE inh
Record of O=C1CCCC/C1=C\Nc1ccc(O)cc1 : >11.4, i
Record of CSc1nc2c(c(=O)[nH]1)C(c1ccncc1)C(C(=O)OC(C)C)=C(C)N2 (centres undefined) : >57, i
Record of O=C(NCc1ccc2c(c1)OCO2)C1CCC(CNS(=O)(=O)c2ccccc2)CC1 (centres undefined) : >57, i
Record of COC(=O)c1cc(C(=O)OC)cc(N2C(=O)CN=C2Nc2nc(C)cc(C)n2)c1 : >57, i
Record of COc1ccc(N/C=C2\CCOC2=O)cc1 : nt, i

Further structures:
SMILES	Bst PK mod	TsaE inh
O=C(NC1CCCCCC1)C1CCCN(S(=O)(=O)c2cnc[nH]2)C1 (centres undefined)	nt	i
Cc1cc(C)n2nc(SCC3COc4ccccc4O3)nc2n1 (centres undefined)	>57	i
CCCn1c2c(c(O)c(C(=O)Nc3ccc(C)cn3)c1=O)CCCC2	>57	i
COCCN1C(=O)C(O)=C(C(=O)c2ccco2)C1c1cccc(Oc2ccccc2)c1 (centres undefined)	nt	i
CN(Cc1ccco1)c1nc(-c2ccc3c(c2)OCO3)nc2ccccc12	nt	i
CCCc1cc2c(=O)c(-c3ccccn3)coc2cc1OC	>57	i
COCCn1c(Cc2ccccc2)nnc1SCC(=O)NC(C)C	>57	i
O=S(=O)(c1cccc(S(=O)(=O)N2CCCC2)c1)c1cccc(S(=O)(=O)N2CCCC2)c1	nt	i
O=C(CCCn1c(=O)[nH]c2cc(Cl)ccc2c1=O)NCC1CCCO1 (centres undefined)	>57	i
COc1ncc2nc(-c3cn(C)c4ccccc34)c(=O)n(CCC#N)c2n1	nt	i
Cc1cc(C)c2c(=O)[nH]c(SCC(=O)Nc3ccccc3)nc2n1	>57	i
Cc1ccc(NC(=O)c2cc(S(=O)(=O)N3CCOCC3)ccc2F)c(C)c1	>57	i
CCOC(=O)c1cnn2c(N)c(C#N)nnc12	>57	i
CCOC(=O)c1[nH]c(=O)c2ccccc2c1O	>11.4	i
Cc1cc(N2CCN(c3ccccc3F)CC2)nc2cc(O)ccc12	>57	i
C[N+]1(C)CCC(OC(=O)C(c2ccccc2)c2ccccc2)CC1	nt	i
CC(C)(C)OC(=O)NCCc1nnc(SCC(N)=O)o1	>57	i
Cc1nc(NC(=O)c2oc3ccccc3c2C)sc1C(=O)N(C)C	nt	i
CC(=O)c1cc(C(=O)Nc2ccccc2C(=O)O)oc1C	>57	i
O=C(Nc1ccc2c(c1)OCCO2)c1ccc(S(=O)(=O)N2CCCCC2)cc1	>57	i
Cc1c(NC(=O)CSc2nc3ccccc3[nH]2)c(=O)n(-c2ccccc2)n1C	nt	i
Cc1noc(C)c1COC(=O)CCc1nc2ccccc2c(=O)[nH]1	>57	i
O=C(NCCN1CCOCC1)c1nn2c(c1Cl)NC(c1ccccc1)CC2C(F)(F)F (centres undefined)	>57	i
COc1ccccc1NC(=O)C1=C(C)Nc2nnnn2C1c1cccc(C)c1 (centres undefined)	nt	i
COc1ccc(Cl)cc1NC(=O)CSc1nnc(COc2ccccc2)n1C	>57	i
Cc1ccc(-c2cc(-c3cccc(F)c3)n[nH]2)c(O)c1	10.7*	i
CCS(=O)(=O)Nc1ccc(C(=O)OC)cc1	>57	i
CCOc1ccc2nc(NCCNC(=O)C3CC3)c(C)cc2c1	nt	i
Cn1c(=O)c2c(nc(-n3ccnc3)n2C)n(C)c1=O	>57	i
CCN(CC)C(=O)CSc1nc2ccccc2c(=O)n1CCC(=O)NCc1ccc(F)cc1	>57	i
OCCNc1nc2ccccc2n1-c1ccccc1	>57	i
CC(C(=O)NCC1CCCO1)N(C(=O)c1snc(C(N)=O)c1N)c1ccccc1 (centres undefined)	>57	i
CCNc1nc(Oc2ccc(C(=O)OC)cc2)nc(N(C)C)n1	>57	i
CC(C)C(=O)Nc1cccc(C(=O)NCc2ccc3c(c2)OCO3)c1	>57	i
CCOc1ccc2nc(NC(=O)CN3CCC(n4nnc5cc(F)ccc54)CC3)sc2c1	nt	i
O=C(CCn1cnc2ccccc2c1=O)Nc1ccc(S(=O)(=O)N2CCCC2)cc1	>57	i
CCc1c(O)nc(SCC(=O)Nc2ccc(OC)cc2)n(C2CCCCC2)c1=O	>57	i
COc1ccc(C(c2nnnn2Cc2cccs2)N2CCN(c3ccccc3F)CC2)cc1OC (centres undefined)	>57	i
O=C(CCCOc1ccccc1)Nc1nccs1	>57	i
CCOC(=O)CSc1nnnn1-c1cccc2ccccc12	?	i
CN(C)c1nc2n(c(=S)n1)CCS2	>25.6	nt
O=C1CC(c2ccc(F)cc2)Cc2nc(N3CCOCC3)ncc21 (centres undefined)	>57	i
Cn1c(=O)c2c(nc(SCCCC#N)n2Cc2c(F)cccc2Cl)n(C)c1=O	nt	i
Cc1ccnc(NC(=O)C23CC4CC(CC(C4)C2)C3)c1	>57	i
Cn1nnnc1SCC(=O)Nc1ccc(Oc2ccc(Cl)cc2)cc1	>57	i
CCOC(=O)c1ccccc1NC(=O)CSc1nc2c(c(=O)n(C)c(=O)n2C)n1C	>57	i
COc1ccc(C(=O)Nc2cc(OC)ccc2OC)cc1	nt	i
Cn1ncc2c(NCCc3ccccc3)nc(Cl)nc21	nt	i
O=C(NCCN1CCOCC1)c1ccc2c(c1)N(Cc1ccccc1)C(=O)CS2	>57	i
CCN(CC)S(=O)(=O)c1cc(-c2nnc(-c3ccc(Br)cc3)o2)ccc1Cl	nt	i
Continuation:
SMILES	Bst PK mod	TsaE inh
CCOC(=O)c1cnc2ccc(Br)cc2c1NCC(C)O (centres undefined)	nt	i
O=c1c2ccccc2nc(SCc2nnc(-c3ccccc3Br)o2)n1Cc1ccco1	>57	i
CCOC(=O)c1cnc2c(-c3ccccc3)cnn2c1N	2.31*	i
CCCN1C2=NCCN2c2ccccc21	>57	i
CCCn1c(-c2ccc(OC)cc2)nc2ccccc21	nt	i
Cc1cccc(NC(=O)CSc2nnc(-c3ccc(S(=O)(=O)N4CCCC4)cc3)o2)c1	>57	i
O=c1[nH]cnc2nc3n(c12)CCCCC3	>57	i
Cc1ccc(-c2cc(C(=O)NCc3cccnc3)no2)cc1	nt	i
COc1ccc(C2C(C(=O)NCCN3CCOCC3)c3ccccc3C(=O)N2C2CCCCC2)cc1 (centres undefined)	>57	i
CC1(C)[C@@H](O)CC[C@@]2(C)[C@H]1CC[C@]1(C)[C@H]2C(=O)C=C2[C@@H]3C[C@@](C)(C(=O)O)CC[C@]3(C)CC[C@@]21C	nt	i
Cn1nnnc1SCC(=O)N1CCc2ccccc2C1	>57	i
Cc1nnc(SCc2ccc(Cl)cc2Cl)[nH]c1=O	nt	i
COc1ccc(NC(C)=O)cc1NC(=O)CSc1nnc(-c2ccncc2)n1C	>57	i
CCOc1cc(-c2noc(-c3ccncc3)n2)cc(Br)c1OC	>57	i
CCn1cc(Br)c(C(=O)Nc2ccc(OC)cc2)n1	nt	i
O=S(=O)(NC1CCCCC1NCc1ccco1)c1ccccc1 (centres undefined)	nt	i
CC1(C)COCN1S(=O)(=O)c1ccc(C(=O)Nc2nnc(-c3ccc(Cl)s3)o2)cc1	>57	i
COCCCNC(=O)CN(C1CCCCC1)S(=O)(=O)c1ccc(C)cc1	nt	i
O=c1cc(CO)oc(C(Nc2ccccn2)c2ccc(C(F)(F)F)cc2)c1O (centres undefined)	>57	i
COc1cccc(C(=O)Nc2ccc(-c3nnc(-c4ccco4)o3)cc2)c1	>25.6	nt
CN1CCCN(C(=O)Cc2c(Cl)cccc2Cl)c2nc3ccccc3nc21	>11.4	i
COc1ccccc1-n1c(N)c(C(=O)NCC2CCCO2)c2nc3ccccc3nc21 (centres undefined)	>25.6	nt
Cc1ccc(-n2c(SCc3cc(=O)n4ccsc4n3)nnc2-c2cccnc2)c(C)c1	>57	i
CC(C)N=C=NC(C)C	nt	i
CC1=C2[C@H](/C=C(\C)C(=O)O)CC[C@@H](C)[C@H]2CC1	nt	i
CCc1nnc(NC(=O)c2ccc(S(=O)(=O)NCC(C)C)cc2)s1	>57	i
COCCNC(=O)c1cc(-c2ccccc2OC)on1	nt	i

Screening results (PubChem)
